KCNQ2 enhance: potentiators of rat KCNQ2 potassium channel; O88943; B-score at 10 µM; CHO-K1 KCNQ2, FluxOR thallium flux fluorescence; active compounds read high; AID 2239; hit rate 0.54% among 310,000;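 active = fluorescence ratio B-score at least 3 SD of library B-scores, with initial fluorescence B-score within 3 SD, cut at about 5.3 in these data; same plate scores as AID 2156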;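 note: B-score of peak minus minimum over baseline fluorescence ratio after K+ and Tl+ stimulus; positive B-score means potentiation of KCNQ2 with more thallium influx and brighter signal; only the inactives scoring about 0 or higher are listed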
Target sequence (O88943 whole entry, looked up): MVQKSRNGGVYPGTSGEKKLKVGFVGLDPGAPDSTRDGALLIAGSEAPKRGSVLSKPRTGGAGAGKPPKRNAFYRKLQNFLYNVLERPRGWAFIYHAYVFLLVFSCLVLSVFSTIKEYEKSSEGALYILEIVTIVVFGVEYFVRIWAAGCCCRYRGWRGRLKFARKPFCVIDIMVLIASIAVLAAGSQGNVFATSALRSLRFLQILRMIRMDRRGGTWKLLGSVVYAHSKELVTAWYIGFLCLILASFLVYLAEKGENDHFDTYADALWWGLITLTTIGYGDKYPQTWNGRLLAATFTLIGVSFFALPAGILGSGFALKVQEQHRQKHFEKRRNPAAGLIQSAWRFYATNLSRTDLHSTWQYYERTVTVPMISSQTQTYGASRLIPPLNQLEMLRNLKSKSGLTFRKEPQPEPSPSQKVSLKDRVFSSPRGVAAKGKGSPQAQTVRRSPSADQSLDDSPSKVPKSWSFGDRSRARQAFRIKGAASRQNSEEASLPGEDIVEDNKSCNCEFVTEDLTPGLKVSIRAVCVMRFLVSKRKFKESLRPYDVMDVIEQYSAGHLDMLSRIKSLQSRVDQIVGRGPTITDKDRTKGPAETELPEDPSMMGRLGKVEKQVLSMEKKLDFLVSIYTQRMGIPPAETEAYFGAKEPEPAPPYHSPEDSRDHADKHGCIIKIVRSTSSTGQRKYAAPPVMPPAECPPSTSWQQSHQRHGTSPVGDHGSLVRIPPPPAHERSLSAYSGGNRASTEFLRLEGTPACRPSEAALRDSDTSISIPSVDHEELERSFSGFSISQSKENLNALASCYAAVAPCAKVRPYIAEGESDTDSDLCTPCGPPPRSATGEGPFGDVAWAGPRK
KCNQ2 enhance baseline: second read-out of KCNQ2 enhance, no call of its own (marks repeat the call); B-score; compound at 10 µM; measured here: initial fluorescence intensity artifact check;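 brightness before thallium and not channel activity; 0 = typical well and far values either way flag optical interference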
* = called active by the depositor. This is a subset; count on the stated rates, not on these rows.

SMILES	KCNQ2 enhance	KCNQ2 enhance baseline
CCOc1ccc(C(=O)Nc2ccc(NC(=O)c3ccccc3)c(C)c2)cc1[N+](=O)[O-]	0.02	0.15
COc1cc(O)c(C(CC(=O)N2CCCC(C)C2)c2cc(OC)c(OC)c(OC)c2)c(OC)c1 (stereo not given)	1.3	-0.02
CCCCOC(=O)c1ccc(NC(=S)NC(=O)c2c(Br)c(C)nn2C)cc1	9.6*	-1.2*
C=CCNC(=O)COc1ccc(S(=O)(=O)NC2CCCCC2)cc1	0.83	-0.19
Cn1c(CO)cnc1S(=O)(=O)Cc1ccc([N+](=O)[O-])cc1	1.3	-0.13
O=C(Nc1ncn[nH]1)c1ccc([N+](=O)[O-])cc1[N+](=O)[O-]	0.81	-0.96
Cc1ccc(-n2ncc3c(SCc4ccccc4)ncnc32)cc1	2	-0.49
O=[N+]([O-])c1ccc(N2CCN(C(=S)c3cccc([N+](=O)[O-])c3)CC2)cc1	0.09	1.5
Nc1ccc(OCCCc2c(N)nc(N)nc2N)cc1	0.05	-1.1
Cc1ccc(C(=O)O/N=C/C2=C(Cl)c3ccccc3CC2)cc1	1.6	-1.5
CCOC(=O)CSc1nc(C)c2cc(OC)ccc2n1	1.2	0.06
CCCCOc1ccc(/C(O)=C2/C(=O)C(=O)N(CCCOC)C2c2ccncc2)cc1C (stereo not given)	0.15	0.89
NC(=O)[C@@H]1CC2(CC(c3cccc(NC(=O)COc4ccc(Cl)cc4)c3)=NO2)CN1C(=O)COc1ccc(Cl)cc1 (stereo not given in full)	0.91	2.9
CCCCn1c(SCC(N)=O)nnc1-c1ccco1	0.02	0.86
COC1OC(COC(=O)CNC(=O)OC(C)(C)C)C(O)C(O)C1O (stereo not given)	0.6	-0.12
C[C@H](Nc1ncnc2sc3c(c12)CCC3)C(=O)O	0.49	0.34
CCC1CCCCN1CCCNC(=O)CN1C(=O)CSc2ccc(S(=O)(=O)N3CCC(C)CC3)cc21 (stereo not given)	1.1	0.91
Cc1ccc(CNC(=O)C(=O)NCC2OCCN2S(=O)(=O)c2ccc(Cl)cc2)cc1 (stereo not given)	0.3	-0.38
COCCCn1cnc2c(c1=O)c1nc3ccccc3nc1n2-c1ccccc1	0.04	0.03
COC(=O)c1ccccc1NC(=O)c1noc2c1CCCC2	0.59	0.49
CC1(C)N=C(c2ccc(Cl)cc2Cl)C(=O)N1	1.4	0.83
CCCCCn1c(=O)[nH]c2cc(C(=O)NCCc3ccc(OC)c(OC)c3)ccc2c1=O	1.4	0.52
COC(=O)c1sc(N)c(C(=O)OC)c1COC(=O)CCNS(=O)(=O)c1ccc(C)cc1	0.79	-1.1
Cc1csc(NC(=O)CSc2nncc(=O)n2N)n1	1.3	-0.67
CC(=O)NC(c1ccco1)c1ccc2cccnc2c1O (stereo not given)	0.49	0.67

14 entries already listed, arranged by SMILES length, smallest number first.
SMILES	KCNQ2 enhance	KCNQ2 enhance baseline
CCCCn1c(SCC(N)=O)nnc1-c1ccco1	0.02	0.86
Nc1ccc(OCCCc2c(N)nc(N)nc2N)cc1	0.05	-1.1
CC(=O)NC(c1ccco1)c1ccc2cccnc2c1O (stereo not given)	0.49	0.67
COC(=O)c1ccccc1NC(=O)c1noc2c1CCCC2	0.59	0.49
C[C@H](Nc1ncnc2sc3c(c12)CCC3)C(=O)O	0.49	0.34
Cc1ccc(-n2ncc3c(SCc4ccccc4)ncnc32)cc1	2	-0.49
C=CCNC(=O)COc1ccc(S(=O)(=O)NC2CCCCC2)cc1	0.83	-0.19
Cc1ccc(C(=O)O/N=C/C2=C(Cl)c3ccccc3CC2)cc1	1.6	-1.5
COC1OC(COC(=O)CNC(=O)OC(C)(C)C)C(O)C(O)C1O (stereo not given)	0.6	-0.12
COCCCn1cnc2c(c1=O)c1nc3ccccc3nc1n2-c1ccccc1	0.04	0.03
CCCCOC(=O)c1ccc(NC(=S)NC(=O)c2c(Br)c(C)nn2C)cc1	9.6*	-1.2*
Cc1ccc(CNC(=O)C(=O)NCC2OCCN2S(=O)(=O)c2ccc(Cl)cc2)cc1 (stereo not given)	0.3	-0.38
CCOc1ccc(C(=O)Nc2ccc(NC(=O)c3ccccc3)c(C)c2)cc1[N+](=O)[O-]	0.02	0.15
NC(=O)[C@@H]1CC2(CC(c3cccc(NC(=O)COc4ccc(Cl)cc4)c3)=NO2)CN1C(=O)COc1ccc(Cl)cc1 (stereo not given in full)	0.91	2.9

(continued)
SMILES	KCNQ2 enhance	KCNQ2 enhance baseline
O=C(N/N=C/C=C\c1ccco1)c1ccccn1	0.2	1.3
O=C1CC2(CCN(C(=O)C(=O)c3c[nH]c4ccccc34)CC2)Oc2ccccc21	0.11	0.19
COc1ccc(CC(=O)N/N=C(\C)CC(=O)NCc2ccco2)cc1OC	0.43	0.88
CC1=NN(C(=O)c2ccc(Br)cc2)C(O)(C(F)(F)OC(F)(F)F)C1 (stereo not given)	5.7*	0.13*
Cc1cc(Cl)ccc1OCC(=O)NCCC(=O)O	1	-0.03
Cc1ccc2nc(NC(=O)c3ccc(N4C(=O)CCC4=O)cc3)sc2c1	0.18	-1.5
Cc1cccc(NC(=O)CSc2nc(N)c(NC(=O)c3ccccc3F)c(=O)[nH]2)c1	0.22	0.89
Fc1ccccc1Cn1nnc2c(-n3ccnc3)ncnc21	0.89	0.49
COc1ccccc1Nc1nc(-c2cccc([N+](=O)[O-])c2)cs1	1.6	-1
Cc1ccc(/C=C2\Oc3cc(OCC(=O)NN)ccc3C2=O)o1	0.13	0.64
COc1cc(C(=O)Nc2ccccn2)cc(OC)c1OC	0.71	0.71
CN1CCN(C(c2ccc(Cl)cc2)c2cc(Cl)c3cccnc3c2O)CC1 (stereo not given)	1.7	1.5
COc1ccc(CNC(=O)CSc2nnc3c(Cl)cc(C(F)(F)F)cn23)cc1OC	0.28	0.74
C=CCn1c(=O)c2ccccc2n2c(SCC(=O)NC(C)C)nnc12	2	0.25
O=C(CN1CCOCC1)Nc1ccc(-c2nc3ccccc3[nH]2)cc1	1.9	0.12
Cc1ccc(S(=O)(=O)N/N=C/c2cccc([N+](=O)[O-])c2)cc1	0.1	0.8
O=C(CN1CCCCC1)NNc1nc(-c2ccccc2)c2cc(Br)ccc2n1	11*	-1.2*
COCCOC(=O)C1=C(C)N=C2SCCC(=O)N2C1c1cccs1 (stereo not given)	0.52	1.7
CCOCCCNC(=O)C(c1ccc(OC)cc1)N(Cc1ccc2c(c1)OCO2)C(=O)c1cnccn1 (stereo not given)	0.47	-0.06
O=C(/C=C/c1ccccc1)NCCS(=O)(=O)N1CCN(c2ccc(F)cc2)CC1	0.77	1.4
COc1ccc(C2=CC(=O)CC(c3ccc(F)cc3)C2)cn1 (stereo not given)	0.48	-2.2
CCOC(=O)CSC1=NC(=O)/C(=C\c2ccc(Cl)cc2)S1	0.04	-1.1
COc1ccc(NC(C)(C)c2nnnn2-c2c(C)cccc2C)cc1	0.63	-2.8
CCOC(=O)c1c(N)n(C2CC(C)(C)NC(C)(C)C2)c2nc3ccccc3nc12	1.1	0.92
O=C1NC2(CCCC2)N=C1c1ccc(F)cc1	0.38	0.82
The list continues.
SMILES	KCNQ2 enhance	KCNQ2 enhance baseline
Cc1cccc(C(=O)Oc2csc(=S)n2C(=O)c2cccc(C)c2)c1	0.41	-0.22
O=C(CNCc1ccccc1)Nc1ccc(F)cc1	0.07	-0.41
Cc1cccc(NC(=S)Nn2cnnc2)c1C	0.34	0.01
COc1ccc(OC)c(C2=NS(=O)(=O)N(C)C(C(=O)N3CCC4(CC3)OCCO4)=C2)c1	0.36	-0.57
Cn1ccnc1SCC(=O)Nc1ccc(Cl)cn1	0.09	3
O=C(Nc1nnc(SCC(=O)N2CCCC2)s1)C1CC(=O)N(c2ccccc2)C1 (stereo not given)	0.85	0.6
COc1cc2c(cc1NC(C)=O)CCCC2	0.75	0
O/N=C1\CCCc2ccc3ccccc3c21	0.42	0.74
Clc1ccc(NCc2nncn2-c2ccccc2)cc1	0.16	-0.65
O=c1[nH]c(Cc2cccc(C(F)(F)F)c2)nc2ccccc12	1.2	2.2
CCOCCCNC(=O)c1ccc(OC(C)=O)cc1	0.65	-0.74
O=C(CCc1nc2ccccc2s1)OCC(=O)c1ccc[nH]1	1.8	-0.11
CCOC(=O)c1sc2nc(Cc3ccc(Cl)cc3)[nH]c(=S)c2c1C	1.5	-0.35
CCOC(=O)CSc1nc2ccc(C)cc2[nH]1	0.15	-0.01
O=C(Nc1cc(C(F)(F)F)ccc1N1CCOCC1)c1cnccn1	0.32	0.01
Cc1ccc(OCCOCCN(C)C)c(Cl)c1	0.28	0.14
O=C(N1CCCC1)C12CC3CC(CC(Cl)(C3)C1)C2	1.4	-0.53
Cc1ccc(Cn2c(=O)c3ccccc3n3c(CCC(=O)NCCN4CCOCC4)nnc23)cc1	0.2	1.4
O=C1C2C3C=CC(C2C(=O)N1C1CCCCC1)C1C2C(=O)N(C4CCCCC4)C(=O)C2C31 (stereo not given)	0.46	0.17
Cc1cc(SCC(=O)c2cccs2)nc2ccccc12	1.2	-0.01
CCNC(=S)N1CCN(c2nc(-c3cccc(OC)c3)cs2)CC1	0.42	-0.25
NS(=O)(=O)c1ccc(CCNC(=O)c2cnccn2)cc1	0.47	0.2
Nc1nnc(SCC(=O)c2ccccc2)s1	0.86	2.2
Cc1c(NC(=O)C(C)OC(=O)c2cc(-c3cccc4ccccc34)nc3ccccc23)c(=O)n(-c2ccccc2)n1C (stereo not given)	0.41	0
CC(C)(C)c1ccc(OCc2nnc(SCC(N)=O)n2N)cc1	0.45	-1.4
(next part)
SMILES	KCNQ2 enhance	KCNQ2 enhance baseline
O=S(=O)(NCc1ccccc1)NCc1cccc(C(F)(F)F)c1	0.02	1.4
O=[N+]([O-])c1ccc(O)c(C2=NNC(c3ccccc3F)C2)c1 (stereo not given)	0.7	0.54
CCOc1cc(N2CCOCC2)c(OCC)cc1NC(=O)COC(=O)c1cc(C)oc1C	0.24	1.3
Cc1ccccc1CN1CCC(Oc2ccc(C(=O)N3CCCC3)cc2)CC1	0.35	-1.6
CCOC(=O)C1CCCN(CCC(=O)Nc2ccc(C)c(C)c2)C1 (stereo not given)	0.13	0.39
NC(=O)COC(=O)c1ccccc1OCc1ccccc1Cl	0.79	-0.03
Cc1ccccc1NC(=S)N(CCCN1CCOCC1)Cc1cccnc1	0.61	2.2
CC1CCN(S(=O)(=O)N2CCN(C(=O)c3ccc4c(c3)OCO4)CC2)CC1	0.6	1.5
O=C(Nc1cccnc1)c1noc2c1CCCCC2	0.18	-0.03
Cc1cccc(C2=N/C(=C/c3cccs3)C(=O)O2)c1	1.5	-1.8
CCCC(=O)Nc1ccc(-c2csc(NNC(C)=O)n2)cc1	0.08	0.01
CCCCC(Sc1nc(N)c(NC(=O)c2ccc(OC)cc2)c(=O)[nH]1)C(=O)O (stereo not given)	0.79	0.01
CCCCn1c(N)c(N(CC(C)C)C(=O)c2ccc(N3C(=O)CCC3=O)cc2)c(=O)[nH]c1=O	0.49	-0.97
CCN(CC)c1ccc2cc(C(=O)O)c(=O)oc2c1	0.31	5.5
O=C1c2ccccc2C2(c3ccccc3)NCCCN12 (stereo not given)	0.06	-1.8
O=C(CSc1nc(O)c(C(c2ccccc2)c2ccccc2)c(=O)[nH]1)N1CCOCC1	0.49	0.09
O=C(NCC1CCCO1)C(c1ccccn1)N(Cc1ccccc1Cl)C(=O)CN1C(=O)c2ccccc2S1(=O)=O (stereo not given)	1.7	-0.59
CC(C(=O)NC1=NCCS1)N1C(=O)c2ccccc2C1=O (stereo not given)	0.35	-1.2
O=C(Nc1ccccc1)C1=C[C@H](c2coc3ccccc3c2=O)C[C@H](OCCCCO)O1	1.4	-0.61
CCN(Cc1ccncc1)C(=O)c1ccc(C)o1	1.3	2.1
Cc1ccc([N+](=O)[O-])cc1S(=O)(=O)Nc1ccc(-c2ccc(N3CCOCC3)nn2)cc1	0.59	0.45
CCNS(=O)(=O)c1ccc(OC)c(C)c1	0.5	-0.45
CCc1nc(SCC(=O)c2ccc3c(c2)OCCO3)c2ccccc2n1	0.31	-1.8
O=C(O)C1CCCCN1S(=O)(=O)c1ccc2ccccc2c1 (stereo not given)	0.63	0.12
Cc1ccc(/C=N/NC(=O)CSCc2ccc(Cl)cc2)cc1	0.45	0.73
(cont.)
SMILES	KCNQ2 enhance	KCNQ2 enhance baseline
COc1ccc(CNC(=O)CNC(C)c2ccc(F)cc2)cc1 (stereo not given)	1	1.4
CC1=Nc2ccccc2/C1=C\c1sc(Nc2ccc(C)cc2)nc1O	2	0.63
COc1cccc(OC)c1OCCCCCc1c(C)n[nH]c1C	0.83	-1.6
CCOC(=O)C1=C(N)OC2=C(C(=O)CCC2)C1c1ccc(C)s1 (stereo not given)	1.5	-1.3
CCN1C(=O)C2(C(C#N)=C(N)Oc3n[nH]c(-c4ccc(Cl)cc4)c32)c2ccccc21 (stereo not given)	0.17	1.2
CC[N+](C)(C)CC/C=C1/c2ccccc2Sc2ccc(Cl)cc21	0.57	-0.01
CC(C)S(=O)(=O)c1csc(C(=O)NN)c1-n1cccc1	0.1	-0.94
CCOc1cc(/C=N/NC(=O)C2CC2)ccc1OC(C)C	0.52	0.77
O=C1c2ccccc2C(=O)N1CSc1ncccn1	0.07	0.02
O=C(CN1C(=O)c2ccccc2S1(=O)=O)NCc1ccc2c(c1)OCO2	0.43	-1.1
CCc1ccc(C(=O)NNC(=O)CN2C(=O)NC(CC)(c3ccccc3)C2=O)cc1 (stereo not given)	0.82	-0.33
CCOC(=O)c1ccc2[nH]c(C)c(C)c2c1	0.01	-3.3
N#Cc1cnc(SCC(=O)N2CCCCC2)nc1N	0.54	-0.36
CC(C)NS(=O)(=O)c1ccc(NCCCn2ccnc2)c([N+](=O)[O-])c1	0.11	3
CC(NC(=O)C1CCC(C)(C(=O)O)C1(C)C)c1ccccc1 (stereo not given)	0.93	0.01
CN1CCN(S(=O)(=O)c2ccc(CNC(=O)c3ccccc3)s2)CC1	0.8	0.48
CCCc1cc(=O)[nH]c(SCC(=O)c2c[nH]c3ccccc23)n1	0.27	0.71
Cc1cc(NC(=O)CCC(=O)N(Cc2cccnc2)C(C(=O)NC(C)(C)C)c2ccccc2Cl)no1 (stereo not given)	0.02	1.3

Bioassay records: PubChem BioAssay, Johns Hopkins Ion Channel Center
